Source: PubChem BioAssay
2A firefly – Primary qHTS Assay for Foot and Mouth Disease Virus Antivirals against NCGC Sytravon and CBC Compound Libraries: Firefly Luciferase Signal. AID 1745856, 2022. HEK cells with a luciferase reporter of 2A StopGo recoding. Potency, µM (doses to about 57.5 µM), for the others: at the highest dose signal change, negative = less light. 0.23% of 120,000 active; active = well fitted falling curve with a large enough effect; inconclusive = small, poorly fitted or top-dose-only effect; inactive = no such curve, though single readings can be large or run the other way; note: nearly all actives have a fitted effect of over 60% in size; overnight with compound
2A Renilla – Primary qHTS Assay for Foot and Mouth Disease Virus Antivirals against NCGC Sytravon and CBC Compound Libraries: Renilla Luciferase Signal; AID 1745857, 2022; HEK cells with a luciferase reporter of 2A StopGo recoding; 0.32% of 120,000 active; Potency, µM (titrated, usually from 57.5 µM), without a hit: at the highest dose signal change, negative = less light; active means well fitted falling curve with a large enough effect; inconclusive means small, poorly fitted or top-dose-only effect; inactive means no such curve, though single readings can be large or run the other way; note: nearly all actives have a fitted effect of over 55% in size; overnight with compound
* hit, by the source's call; ? = inconclusive; [ ] = remark or other dose. % is set by controls: 0 for no effect and ±100 for the full control effect; potency is the fitted concentration of half-maximal effect.

Preview:
The line under a structure holds: 2A firefly, 2A Renilla
> COc1ccccc1NC(=O)Cc1c(C(=O)O)[nH]c2ccc(Cl)cc12
    -13%, -5%
> Cc1ccc(C(=O)N2CCC(c3nc4c(nnn4Cc4ccc5c(c4)OCO5)c(=O)[nH]3)CC2)cc1
    15%, 7%
> CCCNC(=O)c1cccc(CNCc2ccsc2)c1
    -5%, -6%
> Cc1ccc2c(CNCCc3ccco3)c(C(=O)O)n(Cc3ccc(F)cc3)c2c1
    -16%, 6%
> COc1ccc(CCNC(=O)c2ccc3c(c2)c(C)c(C)n3Cc2ccccc2)c(OC)c1OC
    -13%, -7%
> NCC(=O)CCC(=O)O
    0%[11.5 µM], -3%

All compounds of this part (from the top)
The line under a structure holds: 2A firefly, 2A Renilla
> COc1ccccc1NC(=O)Cc1c(C(=O)O)[nH]c2ccc(Cl)cc12
    -13%, -5%
> Cc1ccc(C(=O)N2CCC(c3nc4c(nnn4Cc4ccc5c(c4)OCO5)c(=O)[nH]3)CC2)cc1
    15%, 7%
> CCCNC(=O)c1cccc(CNCc2ccsc2)c1
    -5%, -6%
> Cc1ccc2c(CNCCc3ccco3)c(C(=O)O)n(Cc3ccc(F)cc3)c2c1
    -16%, 6%
> COc1ccc(CCNC(=O)c2ccc3c(c2)c(C)c(C)n3Cc2ccccc2)c(OC)c1OC
    -13%, -7%
> NCC(=O)CCC(=O)O
    0%[11.5 µM], -3%
> Cc1cccc(NC(=O)c2ccc3snnc3c2)c1C
    -5%, -24%
> CCOC(=O)Cc1ccc(NC(=O)N2CC(C)Oc3ccc(Cl)cc32)cc1 (stereo not drawn)
    -6%, 24%
> CSc1ccccc1NC(=O)/C(=C/c1ccco1)c1ccccc1
    7%, 21%
> COC(=O)c1cc2oc(C)cc2n1CC(=O)Nc1ccc(C)cc1C
    -18%, -7%
> CC(C)c1ccc(NC(=O)c2nc3ccccc3nc2N2CCOCC2)cc1
    23%, 32%[activator]
> COC(=O)c1ccccc1NC(=O)c1ccc(=O)n(Cc2cccc(C)c2)c1
    -3%, 3%
> CCC1SC(C)C/C(=N\O)C1C (stereo not drawn)
    20%, -9%
> Cc1c(C(=O)N2CCC(C)CC2)c(S(=O)(=O)NCc2ccccc2)c(C)n1C
    -9%, 24%
> CCN(CC)c1ccc2cc(-c3nc(-c4cccs4)no3)c(=O)oc2c1
    107%[activator], -4%
> CCCn1c(=O)[nH]c(=O)c2c1nc(-c1ccccn1)n2CCOC
    3%, -5%
> CC(=O)c1c(C)[nH]c(C(=O)C(C)OC(=O)c2cccc(O)c2)c1C (stereo not drawn)
    ?, ?
> COc1ccc(CNC(=O)Cc2nc(-c3cccs3)oc2C)cc1
    9%, -2%
> CCOP(=O)(OCC)c1nc(-c2cccc([N+](=O)[O-])c2)oc1NCc1ccc(OC)cc1
    -8%, 9%
> Cc1cc(=O)oc2cc(OCC(=O)Nc3ccc(C(C)C)cc3)ccc12
    3%, -5%
> OCCNc1nc(Nc2cccc(Cl)c2)nc2nccnc12
    41%[activator], 24%
> CCc1ccccc1NC(=O)c1ccc2c(c1)N(Cc1cc(C)ccc1C)C(=O)c1ccccc1S2(=O)=O
    0%, 3%
> COC(=O)c1cc(NC(=O)c2sc3ncn(Cc4cccc(F)c4)c(=O)c3c2C)cc(C(=O)OC)c1
    0%, -6%
> O=C(CCl)NC(NC(=O)CCl)c1ccccc1F
    ?, ?
> CCOc1cc2[nH]c(=O)n(CCCCC(=O)N3CCN(c4cccc(Cl)c4)CC3)c(=O)c2cc1OCC
    2%, 3%
> Cc1nc(N2CCOCC2)c2c(C(=O)N3CCN(c4ccccc4F)CC3)c(C)oc2n1
    -9%, -11%
> Cc1ccc(C)c(-c2ccc3ccccc3n2)c1
    19%, -10%
> O=C(c1ccc(Br)cc1)N(Cc1cccs1)c1ccc(F)cc1
    -17%, 42%[activator]
> Cc1cc(C)cc(-n2ccnc2SC2CCCCC2=O)c1 (stereo not drawn)
    0%, 14%
> CCCCCCCCCCS(=O)(=O)N/N=C/c1cccc([N+](=O)[O-])c1
    16%, 29%
> CCc1cc2c(cc3c(=O)n(CC(=O)N4CCN(c5cc(Cl)ccc5C)CC4)nc(CC)n32)s1
    4%, -4%
> CC(NC(=O)c1ccc2nc(CCc3ccccc3)oc2c1)c1ccccc1 (stereo not drawn)
    18%, 18%
> COc1ccc(NC(=O)Cn2c(=O)n(Cc3nc(C)no3)c(=O)c3cc4c(cc32)OCO4)cc1OC
    -11%, 4%
> Cc1cc(OCC(=O)OC(C)(C)C)c2c(-c3ccccc3)cc(=O)oc2c1
    0%, -1%
> Cc1cc(C)cc(-n2c(SCC(=O)Nc3ccc4c(c3)OCO4)nc3c([nH]c4ccccc43)c2=O)c1
    4%, -13%
> Cc1ccn2c(Nc3ccccc3C)c(-c3ccccc3)nc2c1
    19%, -9%
> O=C(c1ccc(O)cc1)C1CCN(C(=O)c2cccc(C(F)(F)F)c2)CC1
    -6%, 58%[activator]
> CN(CCc1noc(COc2ccc(F)cc2F)n1)C(=O)c1ccccc1C(F)(F)F
    13%, -10%
> COc1ccc2c(C)cc(SCC(=O)NCc3ccc(C)cc3)nc2c1
    -15%, 1%
> O=C(Nc1cccc(C(F)(F)F)c1)c1cc2nc(-c3ccccc3)cc(C(F)(F)F)n2n1
    -16%, -6%
> Cc1cccc(N2CCN(C(=O)c3ccc4c(c3)c(C)c(C)n4C)CC2)c1C
    -5%, -1%
> O=C(Nc1ccc(Cl)cc1)c1nnc(C(=O)N2CCC(CC(=O)N3CCCC3)CC2)s1
    0%, 8%
> CCOC(=O)c1oc2ccccc2c1COC(=O)CNC(=O)c1ccc2c(c1)OCO2
    24%, -8%
> FC(F)(F)c1cccc(-n2nnnc2C2(N3CCCCC3)CCCCC2)c1
    12%, 7%
> Cc1occc1C(=O)Nc1sc2c(c1C#N)CCC(C(C)(C)C)C2 (stereo not drawn)
    65%[activator], -6%
> CCCn1cc(S(=O)(=O)c2ccc(CC)cc2)c(=O)c2cc(F)c(N(CC)CC)cc21
    2%, 17%
> COc1cccc(Cc2nc3ccccc3nc2SCC(=O)N2CCCCC2C)c1 (stereo not drawn)
    -12%, 263%[activator]
> CN(C)CCNC(=O)CN1C(=O)CCn2nc(-c3cn(C)c4ccccc34)cc21
    -28%, -19%
> CSc1nc2c(c(=O)[nH]c(=O)n2C)n1Cc1ccccc1
    0%, 11%
> Cn1c(=O)n(Cc2ccccc2)c(=O)c2c1nc1n2CCN1c1ccccc1
    6%, -18%
> O=C(NCC(c1ccco1)S(=O)(=O)c1cccs1)c1ccc(Cl)cc1 (stereo not drawn)
    50%[activator], 28%
> Cc1nnc(N2CCN(C(=O)Nc3cccc(C(F)(F)F)c3)CC2)c2nn(-c3ccccc3)c(C)c12
    -2%, -1%
> Cc1ccc(CCNC(=O)Cn2c(-c3cccs3)cc3cc(F)ccc32)cc1
    -5%, -2%
> COc1ccc(Oc2coc3cc(OC(=O)c4ccccc4C)ccc3c2=O)cc1
    39%[activator], -1%
> COc1ccc(C(=O)Nc2cnc3sc4c(n3c2=O)CCC(C(C)(C)C)C4)cc1 (stereo not drawn)
    30%[activator], 5%
> Cc1cc2oc(=O)cc(CN3CCCCC3C)c2cc1C (stereo not drawn)
    15%, 26%
> CCN(CC)CCCNC(=O)c1cn(C)c2ccc(S(=O)(=O)N3CCOCC3)cc2c1=O
    -10%, 2%
> Cc1ccc(NC(=O)Cn2nc3c(cc2=O)CCCC3)c(Cl)c1
    -6%, -9%
> Cc1cc(C)cc(NC(=O)Cn2c(=O)n(-c3ccc(C)c(C)c3)c(=O)c3oc4ccccc4c32)c1
    14%, -10%
> Cc1c(C)n(Cc2ccccc2)c2ccc(C(=O)NCc3ccccc3F)cc12
    33%[activator], 95%[activator]

Next structures:
The line under a structure holds: 2A firefly, 2A Renilla
> COc1ccc2[nH]cc(CCN=C(NC(=O)c3ccccc3F)Nc3nc(C)cc(C)n3)c2c1
    45%[activator], 55%[activator]
> Cc1ccc(CNC(=O)C2CCN(c3ncnc4c3nc3n4CCCCC3)CC2)cc1
    -7%, 4%
> O=C(Nc1ccc2oc(-c3cc(Br)ccc3Cl)nc2c1)c1ccc2ccccc2c1
    -3%, -12%
> Cc1ccc(-c2cc(Nc3cccc(C(=O)N(C)Cc4ccccc4)c3)ncn2)cc1
    ?, ?
> CC(C)C(=O)Nc1ccc2oc(-c3cc(F)c(F)cc3Cl)nc2c1
    100%[activator], 18%
> O=C1CC(c2nc(-c3cccc(Cl)c3)no2)CN1c1ccc2c(c1)OCCO2 (stereo not drawn)
    -1%, -4%
> OC(COc1ccc(Oc2ccccc2)cc1)CN1CCN(c2ncccn2)CC1 (stereo not drawn)
    -8%, -10%
> COC(=O)[C@H](C(C)C)N(Cc1cn(CC2CCCCC2)nn1)S(=O)(=O)c1ccc(F)cc1Br
    0%, 130%[activator]
> CCc1ccc(-n2nc(CO)c(C(=O)NCCCc3ccccc3)n2)cc1
    -11%, ?
> CCc1ccc(C(=O)c2cn(CC(=O)Nc3ccc4c(c3)OCO4)c3ccc(CC)cc3c2=O)cc1
    -18%, 0%
> Cn1c(SCC(=O)Nc2ccc(C(=O)O)cc2)nnc1-c1ccc(Cl)cc1Cl
    -2%, -2%
> CC(C)(Oc1ccc(Cl)cc1)C(=O)OCCCOC(=O)C(C)(C)Oc1ccc(Cl)cc1
    -4%, -10%
> COc1cccc(CNc2ncnc3c2nnn3C)c1
    -5%, 2%
> CCC1(c2ccc(C)cc2)NC(=O)N(Cc2ncc(-c3ccccc3)o2)C1=O (stereo not drawn)
    ?, ?
> Cc1cc(C)cc(OCC(=O)Nc2ccc(C(=O)N(C)C)cc2)c1
    22%, 6%
> CCOC(=O)c1sc(-c2ccc(Cl)cc2)cc1NC(=O)CN1CCCC1
    24%, -4%
> CN(Cc1ccc(C#N)cc1)Cc1ccco1
    -5%, -2%
> CC(=O)c1ccc(S(=O)(=O)NCCC(=O)NC2CCC(C)CC2)cc1 (stereo not drawn)
    52%[activator], -12%
> CCOc1ccc(CCNC(=O)CN2CCN(Cc3ccc(Cl)cc3)C2=O)cc1OCC
    8%, 20%
> FC(F)(F)c1cc(-c2cccs2)nc(SCc2ccccc2)n1
    14%, -2%
> CC(=O)c1sc(-c2ccc(F)cc2)nc1C
    102%[activator], 5%
> Cc1cccc(NC(=O)c2ccc(F)c(S(=O)(=O)N(C)C3CCCCC3)c2)c1
    ?, -10%
> COc1ccc(NC(=O)C2(n3cnnn3)CCCCC2)c(OC)c1
    14%, 3%
> COc1ccccc1C(=O)COC(=O)c1cc(S(N)(=O)=O)ccc1F
    0%, 1%
> CCn1c(=O)[nH]c(=O)c2c(C(=O)O)cc(C3CC3)nc21
    0%, 9%
> CCc1nnc(NC(=O)c2cc(-c3ccccc3OC)on2)s1
    113%[activator], 17%
> Cc1oc2ccc(O)c(CN3CCN(Cc4ccccc4)CC3)c2c1C(=O)Nc1cccc(Cl)c1C
    -11%, -7%
> O=c1oc2ccccc2c(O)c1Cc1c(O)c2ccccc2oc1=O
    -14%[11.5 µM], 95%[activator]
> CCC(N)(C(=O)O)c1cccc(Cl)c1 (stereo not drawn)
    -1%, 4%
> COc1ccc(Nc2cc(C)c3cc(NC(=O)c4ccccc4Cl)ccc3n2)cc1
    ?, -10%
> CCOC(=O)c1[nH]c2c(c1Cc1ccccc1)C(=O)CC(c1ccc(C(C)(C)C)cc1)C2 (stereo not drawn)
    0%, 0%
> Cc1ccc(S(=O)(=O)c2nnn(-c3ccc(F)c(Cl)c3)c2N)cc1
    -14%, 39%[activator]
> NC(=O)c1ccc(NC(=O)C2CCN(S(=O)(=O)Cc3ccccc3)CC2)cc1
    -14%, -10%
> COc1cc(OC)cc(-c2noc(-c3ccc(CSCc4ccccc4F)o3)n2)c1
    8%, -13%
> COCCNC(=O)CCn1ccc2cc(S(=O)(=O)N3CCCCCC3)ccc21
    10%, 74%[activator]
> COc1ccc(CN2CCN(CC=C(C)C)CC2)cc1
    ?, -3%
> CCN1CCN(Cc2nc3c(c(=O)n(C)c(=O)n3C)n2Cc2ccc(Cl)cc2)CC1
    1%, -4%
> COc1ccccc1Nc1ncc(C(=O)Nc2ccc(OC)c(OC)c2)c2ccccc12
    14%, 9%
> CCCCCC(=O)Nc1ccc(-c2csc(NC)n2)cc1
    190%[activator], 31%[activator]
> CC1=C(c2ccccc2)S(=O)(=O)N=C1Nc1ccc(C)c(Cl)c1
    1%, 9%
> CCOc1ccc(CNC(=O)CN(C(=O)C2=C(C)OCCS2)c2ccc(Cl)cc2)cc1OC
    -6%, 14%
> CN1CC(=O)N(CC(=O)Nc2cccc(C#N)c2)c2ccccc2C1=O
    -10%, -10%
> c1ccc(CCN(Cc2ccccc2)Cc2ccc(OCc3ccccc3)cc2)cc1
    47%[activator], 0%
> CCOc1ccc(C(=O)c2cc3ccc(O)cc3oc2=O)cc1
    57%[activator], 80%[activator]
> c1ccc2sc(CSc3ccc4c(c3)OCCO4)nc2c1
    81%[activator], 67%[activator]
> COc1ccc(CC(=O)OCC(=O)c2ccc(OC(=O)c3ccco3)cc2)cc1
    0%, -18%
> Cc1ccc(C2=NC(C)(C)N=C2SCC(=O)Nc2ccc(Br)c(C)c2)cc1
    ?, ?
> Cc1ccc(N/C=C/C(=O)c2ccc(Cl)cc2Cl)cc1C
    208%[activator], 22%
> Cc1ccc(-c2nc3ccc(C)cc3nc2-c2ccc(C)cc2)cc1
    16%, -4%
> O=C(c1ccc2c(c1)OCO2)N(Cc1ccco1)C1(C(=O)NC2CCCCC2)CCCCC1
    -8%, 74%[activator]
> O=C(CSc1nc2cc(Cl)ccc2c(=O)n1Cc1ccccc1)N1CCCCC1
    30%, 76%[activator]
